Screening data deposited in PubChem BioAssay by National Center for Advancing Translational Sciences (NCATS).
Sfp inh – qHTS Assay for Inhibitors of Bacillus subtilis Sfp phosphopantetheinyl transferase (PPTase) | Potency, µM, for inactives: max response, negative = inhibition, most hits filed as inhibitors | 310,000 compounds, 3.5% hits | 4'-phosphopantetheinyl transferase ffp (Bacillus subtilis), Q9F4F7 | Biochemical Sfp PPTase activity, qHTS; active = well fitted inhibition curve with a large enough effect; inconclusive = small, poorly fitted or top-dose-only effect, or another doubt; inactive = no such curve, though single readings can be large or run the other way;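 note: the enzyme is Sfp with the accession as filed and its product quenches rhodamine fluorescence; potency is the fitted concentration of half-maximal effect; 0% = enzyme reaction without inhibitor and -100% = no enzyme wells; top concentration of the series not given in the record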
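Reaction rates are the 30-min fluorescence difference (ex 525, em 598 nm) in wells containing 15 nM Sfp, 5 uM rhodamine-CoA and 12.5 uM BHQ-2-YbbR at pH 7.6 with 10 mM MgCl2.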
CtBP-E1A blk – qHTS Assay for Inhibitors of the CtBP/E1A Interaction. CtBP / adenovirus E1A interaction (AlphaScreen). AlphaScreen GST-E1A/His-CtBP binding, 1536-well; hits give low values; control for the full effect not named in the record. activity change, % (no concentration beside the values). AID 651724, 2012. 340,000 compounds, 0.49% hits; in the data active means activity change below about -65%; inconclusive means about -30% to -65%; inactive means above about -30%; note: % is set by controls: 0 for no effect and ±100 for the full control effect
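Protein mix (5X: 125 nM each GST-E1A, His-CtBP) was incubated with pinned compound 2 h at 37 deg C in dark, in 50 mM Tris pH 8.0 buffer with 300 mM NaCl. Glutathione donor and nickel acceptor beads followed; AlphaScreen signal read after 1 h.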
PINK1 modulator – A Quantitative High throughput Screen to Identify Chemical Modulators of PINK1 Expression | PINK1 immunofluorescence, high-content cytometry, 24 h | Potency, µM (titrated, usually from 76.6 µM), without a hit: top-dose activation (PINK1 increase), most hits filed as activators | 410,000 compounds, 0.2% hits | AID 624263, 2012; active = well fitted activation curve with a large enough effect; inconclusive = small, poorly fitted or top-dose-only effect; inactive = flat fitted curve, though single readings scatter; cell line not stated here;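 note: potency is the fitted concentration of half-maximal effect; % of control where 0% means no effect; nearly all actives have a fitted effect of over 65% in size; a mitochondrial uncoupler was the plate control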
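PINK1 protein, normally rapidly degraded, was detected by immunofluorescence after 24 hour compound treatment of a stable cell line. Titration data (5 concentrations) came from laser-scanning cytometry, with CCCP-treated wells as controls.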
Six1-Eya2 inh – qHTS Assay for Inhibitors of the Six1/Eya2 Interaction; Homeobox protein SIX1 (Homo sapiens) + Protein phosphatase EYA2 (Homo sapiens), …; AlphaScreen GST-Six1/His-Eya2 binding, biochemical; hits give low values; control for the full effect not named in the record; activity change, % (test concentration not listed); 360,000 compounds, 0.56% hits; AID 651725, 2012; in the data active = activity change below about -65%; inconclusive = about -30% to -65%; inactive = above about -30%; note: % is set by controls: 0 for no effect and ±100 for the full control effect
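Homogeneous AlphaScreen proximity assay pairing GST-Six1 with His-tagged Eya2 (added as 5X mix: 250 nM and 500 nM) in 50 mM Tris pH 8.0, 300 mM NaCl, 1 mM TCEP. Glutathione donor and nickel acceptor beads; 1 h, 37 °C, dark.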
D2 ag – Beta-Arrestin HTS for Positive Allosteric Modulators of the Human D2 Dopamine Receptor: Agonists. D(2) dopamine receptor (Homo sapiens), P14416. DiscoveRx PathHunter D2 beta-arrestin, luminescence, 90 min; 100% = 57 uM dopamine signal. activation, % (test concentration not listed). 360,000 compounds, 0.084% hits; in the data active = activation above about 40%; inconclusive = about 15% to 40%; inactive = below about 15%; note: compound concentration not given in the record; the text of the record calls up to 30% inactive
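Agonist mode: compounds alone added to overnight-plated D2 PathHunter cells for 90 min at 37 C, with 57 uM final dopamine (EC100) defining full response. Beta-arrestin recruitment detected by chemiluminescent reagent, read after 1 h at ambient temperature.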
TRPV1 potentiator – HTS Assay for Compounds that Act as Potentiators of the Vanilloid Receptor 1. 320,000 compounds, 0.02% hits. AID 540277, 2011. TRPV1-expressing cells, Fluo-8 calcium influx, capsaicin EC20 potentiation; host cell line not named in the record; control for the full effect not named in the record. potentiation, % at 8.33 µM; active means potentiation above 80%; inconclusive means 30% to 80%; inactive means below 30%; note: 0% is about no effect
Target sequence (Q8NER1 whole entry, looked up): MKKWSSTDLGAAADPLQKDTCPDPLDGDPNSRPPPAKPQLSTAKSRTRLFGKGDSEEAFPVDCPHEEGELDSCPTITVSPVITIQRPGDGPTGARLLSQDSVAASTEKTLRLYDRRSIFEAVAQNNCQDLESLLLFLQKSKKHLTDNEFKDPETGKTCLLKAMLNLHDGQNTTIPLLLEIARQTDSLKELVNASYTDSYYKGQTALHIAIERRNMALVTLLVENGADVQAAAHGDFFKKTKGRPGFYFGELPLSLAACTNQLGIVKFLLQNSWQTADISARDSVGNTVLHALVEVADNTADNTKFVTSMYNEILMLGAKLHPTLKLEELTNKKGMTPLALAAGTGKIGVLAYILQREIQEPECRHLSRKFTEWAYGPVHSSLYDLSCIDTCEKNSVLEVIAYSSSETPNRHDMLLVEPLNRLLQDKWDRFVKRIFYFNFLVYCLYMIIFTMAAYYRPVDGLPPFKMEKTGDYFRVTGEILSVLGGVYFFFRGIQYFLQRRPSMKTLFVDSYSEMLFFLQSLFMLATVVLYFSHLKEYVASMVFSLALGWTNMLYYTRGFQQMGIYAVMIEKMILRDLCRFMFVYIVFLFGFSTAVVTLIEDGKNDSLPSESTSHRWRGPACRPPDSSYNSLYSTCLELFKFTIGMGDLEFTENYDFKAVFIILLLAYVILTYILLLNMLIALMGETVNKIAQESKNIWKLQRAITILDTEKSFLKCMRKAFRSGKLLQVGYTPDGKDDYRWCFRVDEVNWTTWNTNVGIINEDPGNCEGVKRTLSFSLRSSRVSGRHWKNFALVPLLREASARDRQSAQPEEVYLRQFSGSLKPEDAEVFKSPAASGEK
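Fluo-8 calcium influx in TRPV1-expressing cells, kinetic read (ex 480/em 520 nm). Compound added and read 3 min for agonist activity, followed by capsaicin at EC20 final and 2 min further read for enhancement.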
D2 potentiator – Beta-Arrestin HTS for Positive Allosteric Modulators of the Human D2 Dopamine Receptor: Potentiators; 360,000 compounds, 0.23% hits; DiscoveRx D2 beta-arrestin cells, luminescence, 90 min; 100% = 57 uM dopamine signal; potentiation, % (concentration not given with the values); active = potentiation of 50% or more; inconclusive = 30% to 50%; inactive = 30% or less;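 note: tested on top of an EC20 dose of dopamine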
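PathHunter beta-arrestin assay in DiscoveRx D2 cells. Compounds were added with an EC20 of dopamine (50 nM final) for 90 min at 37 deg C. Luminescence was read 1 h after detection reagent, with 57 uM dopamine as the EC100 control.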
The depositor's hits bear a star; ? = inconclusive; nt = no result given; [ ] = remark or other dose. No enrichment for hits; 3.7% or so of the library scored in one or more.

Start of the listing, in advance, four compounds:
canonical_smiles	Sfp inh	CtBP-E1A blk	PINK1 modulator	Six1-Eya2 inh	D2 ag	TRPV1 potentiator	D2 potentiator
CCOC(=O)N1CCN(C(=O)COC(=O)c2cccc(S(C)(=O)=O)c2)CC1	nt	15	-3.2%	-2	-2.5	16	0
Cc1c(Cc2ccc3c(c2)OCO3)sc(NC(=O)C2CC2)c1C(N)=O	20µM*	0	5.5%	4	-2.2	-14	9
CCN(CC)S(=O)(=O)c1cccc(C(=O)OC2CC(C)OC2=O)c1 (stereo not given)	8%	-7	-0.9%	9	0.2	1	0
COc1cc(CNC(=O)Nc2cccn3nc(COCCO)nc23)cc(OC)c1OC	nt	-16	1.0%	8	-3.1	nt	-11

The listing, previewed entries included:
canonical_smiles	Sfp inh	CtBP-E1A blk	PINK1 modulator	Six1-Eya2 inh	D2 ag	TRPV1 potentiator	D2 potentiator
CCOC(=O)N1CCN(C(=O)COC(=O)c2cccc(S(C)(=O)=O)c2)CC1	nt	15	-3.2%	-2	-2.5	16	0
Cc1c(Cc2ccc3c(c2)OCO3)sc(NC(=O)C2CC2)c1C(N)=O	20µM*	0	5.5%	4	-2.2	-14	9
CCN(CC)S(=O)(=O)c1cccc(C(=O)OC2CC(C)OC2=O)c1 (stereo not given)	8%	-7	-0.9%	9	0.2	1	0
COc1cc(CNC(=O)Nc2cccn3nc(COCCO)nc23)cc(OC)c1OC	nt	-16	1.0%	8	-3.1	nt	-11
CCOc1ccccc1N1C(=O)CC(Nc2ccc(N3CCOCC3)cc2)C1=O (stereo not given)	-13%	-12	4.2%[38.3 µM]	-13	0.6	-2	25
CC1=C2C3OC(=O)C(C)C3CCC2(C)C=C(Cl)C1=O (stereo not given)	nt	-17	0.6%	7	-3.0	nt	-12
Cc1ccc(/C=C/C(=O)O)cc1S(=O)(=O)NCCO	24%	-1	-0.1%	13	-0.8	-10	1
CCOC(=O)c1c(NC(=O)CSc2ncn[nH]2)sc(C(=O)NC)c1C	4%	-6	-0.8%	-7	1.7	5	-8
O=C(O)c1cc(S(=O)(=O)N2CC3CC3C2C(=O)O)c(Cl)cc1Cl (stereo not given)	11%	5	-1.1%	3	-7.7	6	-8
O=C(NCN1C(=O)C2C3C=CC(C3)C2C1=O)Nc1cccnc1 (stereo not given)	17%	-3	-0.2%	-3	-2.1	4	0
CCCn1c(C(O)c2cc(OC)ccc2OC)nc2ccccc21 (stereo not given)	10%	23	-2.5%	20	-3.9	-2	-5
Cc1noc(C)c1C1(O)CCCCCCCCCCC1	10%	1	-0.6%	9	-0.2	-8	-4
C=C1c2c(Cl)ccc(O)c2C(O)=C2C(=O)[C@]3(O)C(O)=C(C(N)=O)C(=O)[C@@H](N(C)C)[C@@H]3[C@@H](O)C12 (stereo not given in full)	nt	?	?	-12	-0.2	1	10
CN(c1cccc(NC(=O)Nc2cccc(Cl)c2)c1)S(C)(=O)=O	-2%	3	?	-4	4.7	-10	-4
Cc1cccc(NC(=O)c2ccc(-n3cncn3)c([N+](=O)[O-])c2)c1	nt	-1	-1.2%	-2	-5.0	-19	-7
O=C(NCCc1c[nH]c2ccccc12)c1ccco1	4%	-2	0.5%	-19	-3.7	1	-11
CCOc1cc(/C=N/NC(N)=O)cc(Br)c1OCC(=O)Nc1cccc2ccccc12	0%	-9	7.6%	-7	-8.0	-2	7
O=C(COc1coc(CN2CCN(c3ccccc3)CC2)cc1=O)Nc1cccc(F)c1	nt	-2	5.3%	1	3.9	22	-5
O=C(NCCN1CCOCC1)NC1(C(F)(F)F)Oc2ccc(Cl)cc2O1 (stereo not given)	-34%	1	-2.4%	1	8.0	24	27
O=C(Nc1ccc(-c2noc(CCc3ccccc3)n2)cc1)c1cccnc1	-11%	-16	1.0%	1	8.1	-8	11

As entered above:
Six1-Eya2 inh, Cc1cccc(NC(=O)c2ccc(-n3cncn3)c([N+](=O)[O-])c2)c1 = -2
D2 potentiator, O=C(Nc1ccc(-c2noc(CCc3ccccc3)n2)cc1)c1cccnc1 = 11
D2 ag, Cc1noc(C)c1C1(O)CCCCCCCCCCC1 = -0.2
Sfp inh, CN(c1cccc(NC(=O)Nc2cccc(Cl)c2)c1)S(C)(=O)=O = -2%

The list continues.
canonical_smiles	Sfp inh	CtBP-E1A blk	PINK1 modulator	Six1-Eya2 inh	D2 ag	TRPV1 potentiator	D2 potentiator
O=C(CCCCn1c(=O)c2ccccc2n(Cc2ccc(F)cc2)c1=O)NCc1ccco1	-15%	-9	17%	-2	-1.7	1	-7
CCN(C(=O)c1c(N)cnn1C)c1ccccc1	21%	5	-0.5%	9	-1.7	1	2
Cc1cccc(-n2c(CCn3nc(C)c([N+](=O)[O-])c3C)n[nH]c2=S)c1	-3%	0	11µM*	0	-0.1	-19	-12
CC(=O)C1=C(O)C(=O)N(c2nccs2)C1c1ccc(F)cc1 (stereo not given)	-2%	0	1.7%	12	-0.1	5	0
CC1CCN(C(=O)CSc2ccc(-c3ccc(F)cc3)nn2)CC1	6%	8	0.7%	8	-4.3	-18	-20
CN(c1ccccc1)S(=O)(=O)c1cccc(C(=O)NCc2ccccc2CN2CCCC2)c1	nt	nt	1.2%	-1	-1.6	-3	-33
O=C(Nc1cccc(F)c1)C1CCN(C(=O)N2CCOc3ccccc32)CC1	10%	-2	1.3%	0	4.6	-1	-8
CCOC(=O)C1=C(C)NC(C)=C(C(=O)OCC)C1c1ccc(OC)cc1	5%	1	3.2%	-2	-5.7	-2	0
COCCNC(=O)C1(C)Cc2c(-c3cccc(C(N)=O)c3)ccnc2O1 (stereo not given)	nt	-2	5.8%	0	-2.8	nt	-2
O=C(CNCc1ccccn1)N1CCc2ccccc2C1	-23%	-95*	-0.1%	-89*	-1.0	4	-11
O=C(CSc1nc2[nH]ncc2c(=O)[nH]1)N1CCCCC1	11%	17	-0.3%	4	-0.5	-20	2
CC(C(=O)NCC1(c2ccccc2)CCCC1)N1CCOCC1 (stereo not given)	13%	3	-2.0%[38.3 µM]	1	-2.6	-4	-7
c1ccc2c(c1)Nc1nccnc1S2	-89%	-23	24%	-23	-1.2	12	-8
COc1cccc(-c2nc(=S)c3c(n2Cc2ccco2)CCCC3)c1	-9%	16	6.3µM*	5	-1.3	8	-20
Cc1ccc(-c2nnc(CSc3nc(C)nc4sc(C)c(C)c34)o2)cc1	-5%	-4	-5.3%[38.3 µM]	0	1.9	-3	-5
COc1ccc(CNC(=O)C2CCC(CNS(=O)(=O)c3ccc(C)cc3)CC2)cc1 (stereo not given)	8%	nt	1.5%	23	-2.5	-3	-2
O=S(=O)(c1ccc(Cl)c(C(F)(F)F)c1)N1CCN(CC(O)COCC2CCCO2)CC1 (stereo not given)	-19%	10	2.9%	2	0.2	2	-11
C[C@@H]1CN([C@@H](C)CO)C(=O)c2cc(Br)cnc2O[C@@H]1CN(C)Cc1cncnc1	nt	6	0.1%	-1	-3.6	nt	4
Cc1cc(NC(=O)COc2ccc([N+](=O)[O-])cc2)no1	nt	nt	10%	0	-3.2	11	-8
CCc1nc2ccc(C(=O)Nc3cc(-c4ccccc4)ccc3OC)cn2c1N(C)Cc1ccc(Cl)cc1	nt	1	2.3%	-3	-3.8	nt	-17
CCOC(=O)c1cccc(NC(=O)C2CCC(CNc3c(N4CCOCC4)c(=O)c3=O)CC2)c1 (stereo not given)	-7%	-1	1.6%	-10	1.3	8	-2
CCNC(=O)COc1ccc2ccccc2c1	9%	3	-2.5%	6	-1.6	-6	-15
O=S(=O)(c1ccc(F)cc1)N1CCC(c2nc3ccccc3[nH]2)CC1	6%	0	3.4%	-22	-4.2	3	-8
CC(C)(Oc1ccc(Cl)cc1)C(=O)N1CCN(C(=O)c2ccco2)CC1	5%	-8	0.1%	1	-1.0	1	-5
CC(=O)Oc1ccc(N(C(C)=O)S(=O)(=O)c2ccc3ccccc3c2)cc1Br	7%	0	0.3%	-16	11	-9	8
O=C(Nc1ccc2c(c1)COC2=O)c1ccc(Cl)c(Cl)c1	2%	-5	0.7%	1	-1.6	-5	-23
CCO[C@@H]1OC(C(=O)NCc2nc3ccccc3[nH]2)=C[C@H](c2cn(C(C)=O)c3ccccc23)[C@H]1CCCO	23%	-18	-1.6%	-10	-0.7	-7	-25
CC(=O)C1=C(C)NC(SCC(=O)c2ccc(Cl)cc2Cl)=C(C#N)C1c1ccco1 (stereo not given)	45µM*	-4	-6.9%[38.3 µM]	-4	-1.2	-27	-26
C/C(=N\NC(=O)CSc1nnc(C)s1)c1ccc(Cl)cc1	21%	-4	1.2%	-9	-3.2	1	-16
Cc1ccc(SCC(=O)OCC(=O)N(CC(C)C)c2c(N)n(Cc3ccccc3)c(=O)[nH]c2=O)cc1C	nt	-3	-1.4%	12	-3.0	20	-1
CC(=O)Nc1ccc(S(=O)(=O)Nc2nnc(C(C)(C)C)s2)cc1	-9%	-4	-2.8%[38.3 µM]	5	-0.2	-18	0
COCCn1c(SCC(=O)N2CCc3ccccc3C2)nc2ccccc2c1=O	7%	6	-1.5%	2	-1.0	-16	-15
CS(=O)(=O)c1ccc(Cl)c(NC(=O)Cc2c(F)cccc2Cl)c1	12%	-6	4.5%	3	-1.4	29	-11
CN(C)CCCNS(=O)(=O)c1cc(Cl)c(Cl)cc1Cl	4%	nt	1.2%	0	-5.5	-3	-24

Reformatted: results already given
> CC(=O)Nc1ccc(S(=O)(=O)Nc2nnc(C(C)(C)C)s2)cc1
  Sfp inh: -9%
  CtBP-E1A blk: -4
  PINK1 modulator: -2.8%[38.3 µM]
  Six1-Eya2 inh: 5
  D2 ag: -0.2
  TRPV1 potentiator: -18
  D2 potentiator: 0
> COCCn1c(SCC(=O)N2CCc3ccccc3C2)nc2ccccc2c1=O
  Sfp inh: 7%
  CtBP-E1A blk: 6
  PINK1 modulator: -1.5%
  Six1-Eya2 inh: 2
  D2 ag: -1.0
  TRPV1 potentiator: -16
  D2 potentiator: -15
